MARV entry inh: qHTS for Inhibitors of binding or entry into cells for Marburg Virus | Potency, µM (top dose mostly 49.2 µM), inactives show at the highest dose activity change, negative = inhibition, usual class: inhibitors | Marburg virus pseudotype entry/binding inhibition, cell-based; control for the full effect not named in the record; many of its hits are not listed in these tables | hit rate 6.5% among 18,000 | AID 720532, 2013; active means well fitted inhibition curve with a large enough effect; inconclusive means small, poorly fitted or top-dose-only effect; inactive means no such curve, though single readings can be large or run the other way; tested in HEK293 cells; further: luciferase read-out
LASV entry inh: qHTS for Inhibitors of binding or entry into cells for Lassa Virus; Lassa virus pseudotyped entry inhibition, cell-based qHTS; control for the full effect not named in the record; many of its hits are not listed in these tables; Potency, µM (top dose mostly 49.2 µM), inactives show at the top dose activity change, negative = inhibition, hits mostly inhibitors; hit rate 4.1% among 18,000; active = well fitted inhibition curve with a large enough effect; inconclusive = small, poorly fitted or top-dose-only effect; inactive = no such curve, though single readings can be large or run the other way; tested in HEK293 cells; further: luciferase read-out
Active calls of the source: *; ? = inconclusive; · = not tested or not shown; & = joins results of further samples; ! = not active in a repeat; [ ] = another dose, or the depositor's remark. On the % scale 0 is the no-effect control and ±100 the full control effect; potency means the concentration at half of the fitted maximal effect.

Results follow in this order: MARV entry inh | LASV entry inh
1	COc1cc(CN2CCC3(CCC(CNC(=O)c4ccco4)O3)CC2)ccc1O (stereo unspecified)
  -11% | -7%
2	COC(=O)CC=C[C@@H](C)[C@@H](C=NOCC[C@@H]1C=C[C@H](OC(C)=O)[C@@H](COC(C)=O)O1)NS(=O)(=O)c1ccc(C)cc1
  53%[activator][8.59 µM] | -19%[8.59 µM]
3	Nc1nc(N)c(-c2ccccc2)s1
  12% | -8%
4	CC(=O)Oc1cc2c(c(C)c1OC(C)=O)CC=C1[C@]3(C)CC[C@]4(C)CC[C@@](C)(C(=O)O)CC4[C@]3(C)CC[C@]12C (stereo partly specified)
  11µM* | 20µM*
5	O[C@@H]1CCCN2C[C@@H](O)[C@@H](O)C12 (stereo partly specified)
  ? | 9%
6	c1ccc(COC[C@H]2CO2)cc1
  10% | 4%
7	O=S1(=O)CC(N2CCCC2)CN1Cc1ccc(F)cc1 (stereo unspecified)
  23% | 15%
8	O=C(C1CCCCC1)N1C[C@H](n2cc(-c3ccc(F)cc3)nn2)[C@H](O)C[C@@H]1c1ccc(Cl)cc1
  ? | ?
9	O=C1CCCC=C1C(CCc1ccccc1)OC(=O)c1ccc(Br)cc1 (stereo unspecified)
  22%[8.59 µM] | 9%[8.59 µM]
10	CC(NC(=O)c1cc(F)ccc1F)c1nnc2n1CCN(Cc1cccs1)CC2 (stereo unspecified)
  6% | -9%
11	O=c1[nH]cnc2ccccc12
  1% | -11%
12	COC(=O)N[C@H](c1ccccc1)C(C(=O)OC)C(=O)OC
  28%[8.59 µM] | 28%[8.59 µM]
13	CN1CCCCC1CCN1c2ccccc2Sc2ccc(S(C)=O)cc21 (stereo unspecified)
  8.9µM*! | ?
14	O=C(Oc1cccc2cccnc12)c1ccccc1
  18% | -16%
15	Cc1ccc2nc(SCC(=O)NCC3Cc4cc(-c5ncccc5C)ccc4O3)[nH]c2c1 (stereo unspecified)
  ? | 1%
16	C=C1C(=O)C23C(O)C1CCC2[C@]12COC3(O)C(O)C1C(C)(C)CC[C@H]2O (stereo partly specified)
  ? | ?
17	OC[C@H]1O[C@@H](n2cnc3c(NCc4ccco4)ncnc32)[C@H](O)[C@@H]1O
  13µM* | ?
18	CC[C@@H](C(=O)O)[C@@H]1O[C@@H]([C@@H](C)[C@H](O)[C@H](C)C(=O)[C@H](CC)[C@H]2O[C@]3(C=C[C@@H](O)[C@]4(CC[C@@](C)([C@H]5CC[C@](O)(CC)[C@H](C)O5)O4)O3)[C@H](C)C[C@@H]2C)[C@@H](C)C[C@@H]1C
  6.3µM* | 1µM*
19	CC(C)SC(=N)N
  ? | 4%
20	O=C1[C@@H]2[C@H]3[C@H](O)[C@H](O)CC(=NOC[C@@H](O)COCc4ccco4)[C@@H]3CC[C@H]2C(=O)N1Cc1ccccc1
  -4%[8.59 µM] | -2%[8.59 µM]
21	COc1cc(=O)n2c(c1C(=O)N(C)Cc1nonc1C)CCN(CC1CC=CCC1)CC2 (stereo unspecified)
  -7% | -11%
22	CNCC(O)c1ccc(OC(=O)C(C)(C)C)c(OC(=O)C(C)(C)C)c1 (stereo unspecified)
  -2%[17.8 µM] | 6%[17.8 µM]
23	CCC[C@H]1CN(c2ccccc2)C(=O)[C@H]1CC(=O)Nc1ccc(OC)cc1
  4% | 11%
24	COc1ccc2c(c1)C(=O)[C@@H](OC(=O)NCCOc1ccccc1)[C@H](c1ccc(OC)c(Br)c1)O2
  12% | -6%
25	Nc1ccc(S(=O)(=O)Nc2cnc3ccccc3n2)cc1
  13% | 8%
26	NC1(C(=O)O)C[C@@H](C(=O)O)[C@H](C(=O)O)C1
  22%&15%&-9% | 10%&-20%&-5%
27	c1ccc(N=Nc2ccccc2)cc1
  7% | 1%
28	CC(C)(C)OC(=O)NC(NC(=O)OCC1c2ccccc2-c2ccccc21)C(=O)O (stereo unspecified)
  -22% | -9%
29	Cc1ccc([C@H]2C[C@@H](n3cc(COC(=O)c4ccccc4)nn3)[C@H](O)CN2C(=O)c2cccs2)cc1
  -30% | -19%
30	Nc1nc(=O)n(C2OC(CO)C(O)C2O)cc1Cl (stereo unspecified)
  -20% | -8%
31	O=c1[nH]c2cc([N+](=O)[O-])cc([N+](=O)[O-])c2[nH]c1=O
  7% | -20%
32	CCN1C(=O)[C@@H]2[C@H]3[C@H](O)[C@H](O)CC(=NNC(=O)OCc4ccccc4)[C@@H]3CC[C@H]2C1=O
  -8%[8.59 µM] | ·
33	COC(=O)C1=C2CCCO[C@H]2[C@@H]2[C@@H](C)[C@H](OC)c3ccccc3[C@@H]12
  2%[8.59 µM] | -13%[8.59 µM]
34	CCCc1nc(C(C)(C)O)c(C(=O)OCc2oc(=O)oc2C)n1Cc1ccc(-c2ccccc2-c2nn[nH]n2)cc1
  19% | -2%
35	CC1=C(C(N)=O)N2C(=O)[C@@H](NC(=O)Cc3ccccc3)C2SC1 (stereo partly specified)
  -14% | 5%
36	CCN1CCCC1CNC(=O)c1cnn(-c2nccc(-c3cc4ccccc4o3)n2)c1C (stereo unspecified)
  ? | 3%
37	CC(C)(C)OC(=O)NCCCCC1=CC2=CC(=O)C(C)(OC(=O)CCc3ccccc3)C(=O)C2=CO1 (stereo unspecified)
  -24% | -1%
38	OCCN1CCN(Cc2ccc3c(c2)CN(Cc2cc4ccccc4o2)CCO3)CC1
  ? | -15%
39	Cc1ncc2c(c1CNC(=O)/C=C/c1cccs1)CCN(C(=O)c1cc(C(C)C)on1)C2
  8% | -9%
40	CCC1CN2CCC1CC2C(O)c1ccnc2ccc(OC)cc12 (stereo unspecified)
  20µM* | ?
41	CC(=O)OCCC(C)CCC=C(C)C (stereo unspecified)
  10% | -1%
42	COc1cccc(NC(=O)/C=C\c2ccc(Cl)cc2)c1
  29% | -13%
43	CC(C)C1C(=O)N(Cc2cn(CCC3OCCCO3)nn2)CCS(=O)(=O)N1Cc1ccc(-c2ccccc2)cc1 (stereo unspecified)
  -24% | ·
44	O=[N+]([O-])c1ccc(CN2CC(N3CCCC3)CS2(=O)=O)cc1 (stereo unspecified)
  2% | 15%
45	CC(C)(C(O)c1ccc([N+](=O)[O-])cc1)[N+](=O)[O-] (stereo unspecified)
  ? | -12%

Fetched by structure from above, 7 records:
Results follow in this order: MARV entry inh | LASV entry inh
45	CC(C)(C(O)c1ccc([N+](=O)[O-])cc1)[N+](=O)[O-] (stereo unspecified)
  ? | -12%
37	CC(C)(C)OC(=O)NCCCCC1=CC2=CC(=O)C(C)(OC(=O)CCc3ccccc3)C(=O)C2=CO1 (stereo unspecified)
  -24% | -1%
36	CCN1CCCC1CNC(=O)c1cnn(-c2nccc(-c3cc4ccccc4o3)n2)c1C (stereo unspecified)
  ? | 3%
40	CCC1CN2CCC1CC2C(O)c1ccnc2ccc(OC)cc12 (stereo unspecified)
  20µM* | ?
33	COC(=O)C1=C2CCCO[C@H]2[C@@H]2[C@@H](C)[C@H](OC)c3ccccc3[C@@H]12
  2%[8.59 µM] | -13%[8.59 µM]
42	COc1cccc(NC(=O)/C=C\c2ccc(Cl)cc2)c1
  29% | -13%
32	CCN1C(=O)[C@@H]2[C@H]3[C@H](O)[C@H](O)CC(=NNC(=O)OCc4ccccc4)[C@@H]3CC[C@H]2C1=O
  -8%[8.59 µM] | ·

The list continues:
Results follow in this order: MARV entry inh | LASV entry inh
46	Cc1cccc(CNC(=O)c2cnn(-c3nccc(-c4cccs4)n3)c2C2CC2)n1
  0% | -6%
47	COc1ccc(COc2cc(-c3cccc(OC)c3)nc3ccc(NC(=O)c4ccc(C)cc4)cc23)cc1
  ? | -16%
48	CCCN1C[C@H](C)N([C@H](c2ccc(C(=O)N(CC)CC)cc2)c2cccc(OC)c2)C[C@H]1C
  5%&-6% | -3%&0%
49	COc1cccc(-c2nc3cc4c(cc3cc2CN(C(=O)c2csc(C)n2)C2CC2)CCC4)c1OC
  ? | ?
50	CCN1C(=O)NC(c2cccc(C(F)(F)F)c2)C(C(C)=O)=C1C (stereo unspecified)
  12%[8.59 µM] | -4%[8.59 µM]
51	O=C(NCc1ccccn1)c1cnn(-c2nccc(-c3cc4ccccc4o3)n2)c1C1CC1
  0% | -30%
52	O=C1c2ccccc2-c2n[nH]c3cccc1c23
  5%&1%&3%&25% | -13%&-12%&1%&24%
53	O=c1cc(-c2ccc(O)cc2)oc2c(-c3cc(-c4cc(=O)c5c(O)cc(O)cc5o4)ccc3O)c(O)ccc12
  19% | 15%
54	Cc1cccc2cc(CN(C(=O)c3ccc(C(F)(F)F)cc3)C3CC3)c(N3CCC(O)CC3)nc12
  ? | ?
55	COc1cc(=O)n2c(c1C(=O)NCc1ccco1)CCN(C(=O)c1ccccc1-c1ncc[nH]1)CC2
  1% | -12%
56	COC(=O)C1CCN(C2CN(Cc3cn(Cc4ccc(C(F)(F)F)cc4)nn3)S(=O)(=O)C2)CC1 (stereo unspecified)
  23% | ·
57	CSc1ccc(Oc2cccc3c2S(=O)(=O)N([C@H](C)c2ccccc2)C[C@@H](COCc2ccccc2)O3)cc1C
  ? | ?
58	Clc1ccccc1C(c1ccccc1)(c1ccccc1)n1cccn1
  ? | ?
59	C=C(NC(=O)C(=C)NC(=O)c1csc(C2=NC3c4csc(n4)C4NC(=O)c5csc(n5)C(C(C)(O)C(C)O)NC(=O)C5CSC(=N5)C(=CC)NC(=O)C(C(C)O)NC(=O)c5csc(n5)C3(CC2)NC(=O)C(C)NC(=O)C(=C)NC(=O)C(C)NC(=O)C(C(C)CC)NC2C=Cc3c(C(C)O)cc(nc3C2O)C(=O)OC4C)n1)C(N)=O (stereo unspecified)
  ? | ?
60	COc1ccc2c(c1)C(=O)[C@@H](OC(=O)N[C@H]1CCCc3ccccc31)[C@H](c1ccc(OC)c(Br)c1)O2
  2% | 4%
61	Cc1occc1C(=O)Nc1cccc(-c2nc(CNC(=O)c3ccc4ccccc4n3)c(C)o2)c1
  ? | ?
62	N=C(N)c1ccc(OCCCOc2ccc(C(=N)N)cc2Br)c(Br)c1
  ? | ?
63	N[C@@H](Cc1cc(I)c(Oc2cc(I)c(O)c(I)c2)c(I)c1)C(=O)O
  -25% | ·
64	OC[C@H]1NC[C@H](O)[C@@H](O)[C@@H]1O
  9% | 2%
65	CS(=O)(=O)Nc1cccc(-c2ccc3ncnc(NCc4cccnc4)c3c2)c1
  -26% | 1%
66	CCCCCC(=O)N1C[C@@H](O)[C@H](n2cc(COC(=O)c3ccccc3)nn2)C[C@H]1c1ccc(OC)cc1
  -17% | 11%
67	O[C@@H]1[C@H](O)[C@H]2[C@@H](O)CCN2C[C@@H]1O
  4% | 1%
68	C[C@H]1COc2cc(N3CCCCC3)ccc2S(=O)(=O)N1
  40%[activator] | 13%
69	c1ccc2c(N3CCNCC3)nc(-c3ccc4c(c3)OCO4)nc2c1
  10µM* | -9%
70	C=C1CC/C=C(\C)CC[C@@H]2[C@@H]1CC2(C)C
  7% | -2%
71	Cc1ccccc1-c1nc(NCCN2CCOCC2)c2ccccc2n1
  -16% | -3%
72	CC[C@H](C)[C@@H]1O[C@]2(CC[C@@H]1C)C[C@H]1C[C@H](CC=C(C)[C@@H](O[C@@H]3C[C@H](OC)[C@H](O[C@@H]4C[C@H](OC)[C@H](O)[C@H](C)O4)[C@H](C)O3)[C@@H](C)C=CC=C3CO[C@@H]4[C@@H](O)C(C)=C[C@@H](C(=O)O1)[C@]34O)O2
  ? | -17%[17.8 µM]
73	NCCCC[C@H](NC(=O)[C@@H]1CCCN1C(=O)[C@@H](N)CCCN=C(N)N)C(=O)N1CCC[C@H]1C(=O)N[C@@H](CCC(N)=O)C(=O)N[C@@H](CCC(N)=O)C(=O)N[C@@H](Cc1ccccc1)C(=O)O
  -10% | -18%
74	NC(=O)OCC(COC(N)=O)c1ccccc1
  -11%&1% | -15%&-5%
75	C#CCN(C[C@H](NC(=O)OC(C)(C)C)C(C)C)S(=O)(=O)c1ccc(Br)cc1F
  -2% | 11%
76	CC(C)C[C@H]1COc2cc(NCCO)ccc2S(=O)(=O)N1
  1% | 50%[activator]
77	CN1CC(=O)NC1=N
  4% | 4%
78	CC(C)NC(C)Cc1ccc(I)cc1 (stereo unspecified)
  -8% | 4%
79	C[C@H](Cc1ccccc1)Nc1ncnc2c1ncn2[C@@H]1O[C@H](CO)[C@@H](O)[C@H]1O
  35%[activator] | 13%
80	CC(C)(C)C(O)C(Oc1ccc(Cl)cc1)n1cncn1 (stereo unspecified)
  -10%[107 µM] | -16%[107 µM]
81	CCN1C(=NCCc2ccc(Br)cc2)NC(c2ccccc2)C(C(=O)OC)=C1C (stereo unspecified)
  ? | 2%&0%[8.59 µM]
82	C=C(CCN1C=C(C(=O)OCC)C(c2ccccc2)NC1=O)OC (stereo unspecified)
  ? | -11%[8.59 µM]
83	O=C1C=CC(=O)c2c1ccc1c2ccc2ccccc21
  -11%[17.8 µM] | -5%[17.8 µM]
84	CCOC(=O)C1=C(C)c2ccccc2OC1(C)C(=O)OCC (stereo unspecified)
  ? | ?
85	COc1ccc(NC(=O)C[C@H]2C(=O)N(Cc3ccccc3)C[C@@H]2Cc2ccccc2)cc1
  ? | ·
86	CC(=O)OCC(=O)[C@@]1(O)CC[C@@H]2[C@H]3CCC4=CC(=O)CC[C@]4(C)[C@]3(F)[C@@H](O)C[C@@]21C
  -8%[17.8 µM] | -1%[17.8 µM]
87	Nc1ccc2oc(-c3ccccc3Cl)cc(=O)c2c1O
  61%[activator] | 43%[activator]
88	O=C(NCc1ccccc1)OCCN1CCN(Cc2ccccc2)CCC1=O
  ? | ?
89	COC(=O)C1=C(C(=O)OC)[C@@H]2N(Cc3ccccc3)c3ccccc3[C@@]23C[C@@H](C(=O)OC)N(C(=O)NCc2ccccc2)C3=C1
  -13% | 19%
90	C#CCN1C(=O)[C@@]2(CC(C)=CC[C@@H](C)O2)c2ccccc21
  16%[8.59 µM] | -24%[8.59 µM]

From PubChem BioAssay
